S aureus helic: inhibitors of S. aureus replicative helicase, primary screen, biochemical, fluorescence unwinding readout; replicative DNA helicase (DnaC/DnaB), Staphylococcus aureus; purified S. aureus helicase, fluorescence unwinding assay; about half of the hits fall short of the stated cut; inhibition, %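 (tested at about 80 µM)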; 0.05% of 120,000 active; AID 485395, 2010;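 active = both duplicates at 50% or more, or one of them with a favoured structure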;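 also: 0% = mean of negative control wells and 100% = mean of positive control wells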
MgrA-DNA mod: S. aureus MgrA activity modulators, primary screen, biochemical, S. aureus Newman, fluorescence polarization. 0.13% of 84,000 active. inhibition, %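 (about 10 µg/mL by stock and volumes)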. MgrA-DNA binding;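 active = above 50% in either of two replicates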;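 also: 0% = protein plus DNA without compound and 100% = DNA alone without protein; higher means less MgrA bound to DNA so lower polarization; one replicate is shown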
Numbers without * were called inactive; nt = not tested or not shown. An excerpt; the hit share may differ from the screen's.

SMILES | S aureus helic | MgrA-DNA mod
COC(=O)C1Cc2ccccc2CN1CN1C(=O)c2cc(Cl)c(Cl)cc2C1=O (stereo unspecified) | -9.0 | nt
Cc1ccc2oc(=O)c3cnn(CC(=O)N4CCCCCC4)c3c2c1 | 24.0 | nt
CCn1cc(C2=NCCO2)c2ccccc21 | 6.0 | nt
CC1(C)CC2CC(C)(CN2S(=O)(=O)c2ccc(Cl)s2)C1 (stereo unspecified) | -10.0 | nt
Cc1cc(C)n(CC(=O)N2CCCC2)c(=O)c1C#N | 15.0 | -1.9
CSCCNC(=O)c1cccc(Cl)c1 | 6.0 | 2.2
Oc1c(Cl)cc(Cl)cc1C=Nc1ccc(N2CCOCC2)cc1 | nt | 0.8
O=C(NCCc1ccc2c(c1)OCCO2)c1ccncc1 | 5.0 | nt
CCNc1nc(OCC(F)(F)F)nc(N(c2ccccc2)c2ccccc2)n1 | -5.0 | -0.8
N#CCc1ncc(CSc2nnnn2-c2ccccc2)s1 | -16.0 | nt
CC1(C)OC(=O)C=C(c2ccc(Cl)cc2)O1 | 2.0 | 1.9
O=C1Nc2ccccc2C12Nc1ccccc1S2 (stereo unspecified) | 14.0 | 3.3
O=C(OC/C=C/c1ccccc1)c1cccc(-n2cnnn2)c1 | 10.0 | nt
CCOC(=O)Cc1c(C)nc2c(-c3ccc(Cl)cc3)c(C)[nH]n2c1=O | 18.0 | -1.6
CCOC(=O)c1cc(COc2c(Cl)cccc2Cl)on1 | nt | -3.6
Cc1ccc(OC(=O)c2cccnc2)cc1 | -5.0 | 2.9
O=C(NCc1ccccc1)C1CC(c2ccc(F)cc2)=NO1 (stereo unspecified) | 6.0 | -3.6
NC(=O)C1CCCN1c1c(F)c(F)c(C(=O)c2ccccc2)c(F)c1F (stereo unspecified) | 11.0 | nt
CCOc1ccc(NC(=O)C2CCCO2)cc1 (stereo unspecified) | 0.0 | nt
Cc1ccc2cc(F)ccc2n1 | nt | 2.1
CC(CNC(=O)C1CCCN(C(=O)c2cc3sccc3n2C)C1)c1ccccc1 (stereo unspecified) | 17.0 | nt
O=C(COC(=O)c1cnccn1)NCc1ccccc1 | 12.0 | nt
CC(C)CC1NC(=S)N(Cc2ccccc2)C1=O (stereo unspecified) | -4.0 | nt
CCCNC(=O)C1CCN(C(=O)c2ccc(-n3ccc4ccccc43)s2)CC1 | 21.0 | nt
Cc1cccc(NC(=O)CCC(=O)O)c1 | 8.0 | nt
O=C(COc1ccc(C(F)(F)F)cc1)c1ccc2c(c1)OCCO2 | -2.0 | nt
CC1(C)CC(=O)CC(=Nc2ccc(C(=O)O)cc2)C1 | 5.0 | -1.8
O=C(Cc1cc(=O)[nH]c(=O)[nH]1)NC1CCCC1 | -10.0 | nt
CCOC(=O)[C@H](CCc1ccccc1)N[C@H]1CCc2ccccc2N(CC(=O)O)C1=O | nt | -0.2
C=CCn1c(C)nnc1SCC(=O)N1CCN(S(=O)(=O)c2ccc3ccccc3c2)CC1 | -6.0 | nt
CC1=CC(C)(C)N(CC(=O)c2ccccc2)c2ccc(C)cc21 | -1.0 | -0.8
Nc1ccc2nc(CCc3nc4ccc(N)cc4s3)sc2c1 | -27.0 | nt
O=S(=O)(Nc1ccc(Cl)cc1)c1ccc2oc(=S)[nH]c2c1 | -4.0 | nt
COc1ccc(NC(=O)CCc2c(C)nc3cc(-c4ccc(Cl)cc4)nn3c2C)c(OC)c1 | 10.0 | 2.5
Brc1ccc(-c2noc(-c3ccc(Br)cc3)n2)cc1 | 10.0 | -1.6
O=C(CCN1C(=O)/C(=C\c2ccco2)SC1=S)N1CCCC1 | 9.0 | nt
CN1C(=O)C2C3c4ccccc4C(c4ccccc43)C2C1=O (stereo unspecified) | 5.0 | 0.6
CCc1ccc(NC2OC(=O)c3ccccc32)cc1 (stereo unspecified) | 3.0 | 4.9
COC(=O)c1ccccc1S(=O)(=O)NC(Cc1ccccc1)C(=O)OC (stereo unspecified) | -15.0 | nt
CC1(C)CC(=O)C=C(NNS(=O)(=O)c2ccccc2)C1 | 10.0 | nt
O=C(NC1CCCCNC1=O)c1ccccc1 (stereo unspecified) | nt | -3.0
CCOC(=O)c1ccc(Nc2nnc(-c3cc4cc([N+](=O)[O-])ccc4oc3=O)s2)cc1 | nt | -1.2
CCN1CCc2c(sc3[nH]c(=S)n(-c4cccc(OC)c4)c(=O)c23)C1 | -11.0 | nt
N#Cc1c(N)nc2sc3c(O)cc(=O)[nH]c3c2c1-c1ccc(Cl)cc1 | 5.0 | 0.8
O=S(=O)(N1CCCCC1)N1CCN(c2ccc(F)cc2)CC1 | 18.0 | -2.7
O=S(=O)(c1cccc(C(F)(F)F)c1)N1CC=C(c2ccccc2)CC1 | nt | 0.7
Cc1occc1C(=O)CC#N | -9.0 | nt
CC1(C)CC2CC(C)(CN2CC(=O)Nc2ccc3c(c2)OCCO3)C1 (stereo unspecified) | -7.0 | nt
Cc1onc(-c2c(Cl)cccc2Cl)c1C(=O)ONC(=O)c1ccccc1 | nt | 1.0
C[C@H](NS(=O)(=O)/C=C/c1ccccc1)C(=O)OC1CCOC1=O (stereo partly specified) | 8.0 | nt
CC(=O)Nc1scc[n+]1Cc1ccccc1 | -9.0 | -5.9
Cc1cccc(OCc2nnc(SCC(=O)C34CC5CC(CC(C5)C3)C4)o2)c1 | 1.0 | nt
COCC(C)Nc1ncnc2sc3c(c12)CCC3 (stereo unspecified) | 7.0 | nt
O=C(O)c1ccccc1NCc1cccs1 | 11.0 | -1.6
O=C(NCc1ccccn1)c1ccc2c(c1)N(Cc1ccccc1)C(=O)c1ccccc1S2=O (stereo unspecified) | 20.0 | nt
COc1ccc(N2C(=O)CC(N(C(C)=O)c3ccc(OC)cc3)C2=O)cc1 (stereo unspecified) | 4.0 | 2.2
Clc1cnc(-n2cccc2)c(Br)c1 | nt | 1.0
O=C(CCS(=O)(=O)c1cc(Br)cc2c1N(C(=O)C1CC1)CC2)NCc1ccc(F)cc1 | 9.0 | nt
CC12CC3(C)CC(C)(C1)CC(C(=O)NC(=S)NC(C)(C)C)(C2)C3 | -9.0 | 2.8
O=C(O)CCCn1nc(-c2ccccc2)c2ccccc21 | 9.0 | nt
The listing continues:
SMILES | S aureus helic | MgrA-DNA mod
O=c1[nH]c(=S)[nH]c(O)c1C=Nc1ccc(Br)cc1 | 10.0 | 0.8
O=C1CSC(c2cccnc2)N1c1ccc(-c2csnn2)cc1 (stereo unspecified) | nt | -1.7
C=CCn1c(SCC(=O)OCC)nnc1C(C)C | -4.0 | -4.5
O=C(NCCS(=O)(=O)Cc1ccc(F)cc1)c1c(F)cccc1Cl | nt | -1.6
CN(C(=O)c1cc(C(C)(C)C)nn1C)c1nnc(C(F)(F)F)s1 | nt | -0.2
Nc1ccc(-c2nc3ccccc3n2CCCOc2ccccc2)cc1 | 1.0 | -1.2
COCCOC(=O)C1=C(C)NC(=S)NC1c1ccc(C)c(OC)c1 (stereo unspecified) | 1.0 | 1.1
Cc1cc2cc(CNC(=O)Cc3cccs3)ccc2n1C | 13.0 | nt
Cc1cc(C(F)(F)F)n2nc(-c3ccccc3)cc2n1 | -40.0 | nt
O=C(CCN1CCOCC1)c1ccc2c(c1)OCCO2 | nt | 8.9
CCOC(=O)c1cc(C(=O)O)nn1C | -1.0 | -5.6
O=C(NC(CO)C(=O)O)c1cncc(Br)c1 (stereo unspecified) | -15.0 | nt
O=C1C(c2ccccc2)NC(=S)N1C1CCCCC1 (stereo unspecified) | 9.0 | 0.1
COc1ccccc1OCCOc1c(Cl)cc(C=C2C(=O)N(C)C(=O)N(C)C2=O)cc1OC | nt | 0.0
Clc1ccc(N=Cc2ccccc2)cc1 | nt | 0.6
Cc1cccc(OCCn2c(CO)nc3ccccc32)c1 | -28.0 | nt
CN(C)S(=O)(=O)c1ccc(N2CCCC2)c(C(=O)NCc2ccccc2)c1 | -7.0 | nt
CCOC(=O)c1[nH]c(C)c(C2C(C#N)=C(N)OC3=C2C(=O)CCC3)c1C (stereo unspecified) | 5.0 | nt
CC1(C)OC(=O)C(=CNc2ccccn2)C(=O)O1 | nt | 0.8
COc1ccc(OC)c(CCNC(=O)C2CCCN(c3nc4ccccc4[nH]3)C2)c1 (stereo unspecified) | 9.0 | nt
C=CCN=C(N)SCc1nc2ccccc2c(=O)[nH]1 | -21.0 | 0.4
CCCCC1=NN2C(=N)/C(=C\c3cccn3-c3ccc(C)cc3C)C(=O)N=C2S1 | -4.0 | nt
CN1C(C(=O)NC(C)(C)C)=CC(c2ccc(F)cc2)=NS1(=O)=O | -3.0 | 0.3
CCC(C)NC(=O)Cn1ncc2c(=O)oc3ccc(C)cc3c21 (stereo unspecified) | 7.0 | nt

Single records, as listed above. Values in the order: S aureus helic, MgrA-DNA mod
Entry for C=CCN=C(N)SCc1nc2ccccc2c(=O)[nH]1 = -21.0, 0.4
Entry for CCC(C)NC(=O)Cn1ncc2c(=O)oc3ccc(C)cc3c21 (stereo unspecified) = 7.0, nt
Entry for Clc1ccc(N=Cc2ccccc2)cc1 = nt, 0.6
Entry for CCOC(=O)c1[nH]c(C)c(C2C(C#N)=C(N)OC3=C2C(=O)CCC3)c1C (stereo unspecified) = 5.0, nt

Additional records follow.
SMILES | S aureus helic | MgrA-DNA mod
Cc1ccccc1NC(=O)C1C2c3ccccc3OC1(C)N=C1SCC(=O)N12 (stereo unspecified) | -2.0 | -2.2
C=C1SC(=Nc2cc(C)c(C)c(C)c2)N(C(=O)c2c(F)cccc2F)C1(C)C | nt | -2.4
COC(=O)Cc1nc(-c2ccc(-c3ccon3)s2)sc1C | nt | -0.4
O=C1C=C(SCc2c(F)cccc2Cl)CC(c2ccccc2)C1 (stereo unspecified) | nt | -0.2
CN1CCC(N(C)Cc2cc(C(C)(C)C)c(O)c(C(C)(C)C)c2)CC1 | 7.0 | nt
COC(=O)c1ccc(Cl)cc1N(Cc1ccccc1)S(C)(=O)=O | nt | -4.3
C=CCNC(=O)Cn1c(C(F)(F)F)nc2ccccc21 | nt | -4.8
O=C(COc1ccc(Cl)cc1)OCC(=O)N1CCc2ccccc2C1 | -3.0 | 0.8
COc1cc(OC)c(C(F)(F)F)cc1[N+](=O)[O-] | nt | 1.3
CCc1ccc(C(N)=S)cc1 | -18.0 | nt
Cc1cc2cc(CCNC(=O)/C=C\c3ccccc3)c(=O)[nH]c2cc1C | -4.0 | 0.9
O=C(O)C1C2CCC(C2)C1C(=O)N1CCN(c2ncccn2)CC1 (stereo unspecified) | 6.0 | 16.1
CN1C(=O)c2oc3ccccc3c(=O)c2C1c1ccccc1 (stereo unspecified) | 4.0 | -4.8
O=C(Cc1ccsc1)OCc1csc(-c2ccccc2)n1 | 6.0 | nt
COc1ccc(/C=C2\SC(N3CCN(C(=O)CCN4C(=O)/C(=C\c5cccs5)SC4=S)CC3)=NC2=O)cc1 | nt | -2.4
CC(C)(C)c1cc(N/C(=N\S(=O)(=O)c2ccccc2)c2ccccc2)no1 | 1.0 | nt
COc1ccc(Cn2c(=O)oc3ccc(C)cc32)cc1 | -18.0 | nt
c1ccc(OCC2CCNCC2)nc1 | 13.0 | -1.1
CCNC(=O)c1ccc(C)c(S(=O)(=O)N2CCCC2)c1 | 9.0 | 7.7
O=C(NCC1COc2ccccc2O1)c1ccc(S(=O)(=O)N2CCCCC2)cc1 (stereo unspecified) | -11.0 | nt
O=C(CCc1nc2ccccc2c(=O)[nH]1)Nc1ccccc1C(=O)NC1CC1 | -20.0 | nt
CC(C)(C)C(=O)CCN1C(=O)C2(OCCO2)c2ccccc21 | nt | 3.2
COc1ccc2nc(N3CCOCC3)[nH]c2c1 | 18.0 | 0.9
CCOC(=O)CN1c2ccccc2NC1C(C#N)c1ccc(OC)cc1 (stereo unspecified) | -9.0 | nt
NNC(=O)CCCNc1ccc(Cl)cc1 | 3.0 | -1.9
COc1ccccc1N/C=C/C(=O)c1ccccc1 | 5.0 | 0.8
O=C(COc1ncnc2ccccc12)NC(=O)NC1CCCCC1 | -13.0 | nt
O=C(Nc1c(-c2cccs2)nc2ccccn12)c1cccc(C(F)(F)F)c1 | 9.0 | 1.9
Cc1cccc(NC(=O)c2cccc(C)c2)c1 | nt | 2.9
O=c1[nH]c2ccc(S(=O)(=O)N3CCCC3)cc2[nH]c1=O | 7.0 | nt
COC(=O)c1c(N2C(=O)CCC2=O)sc2c1CCCC2 | 10.0 | -1.9
NC1=NC(=O)CC(C(=O)O)S1 (stereo unspecified) | 10.0 | nt
N#Cc1ccccc1NCC(=O)N1CCN(S(=O)(=O)c2ccccc2)CC1 | -17.0 | nt
CC(C)c1ccc(NC(=O)/C=C/c2ccco2)cc1 | 3.0 | nt
N#CCc1c(C#N)c(N)nc(N2CCN(S(=O)(=O)c3ccccc3)CC2)c1C#N | -13.0 | nt
C/C(O)=C(\C#N)c1nc2ccccc2[nH]1 | 5.0 | 0.3

Compounds listed so far containing a CF3 group (8):
SMILES | S aureus helic | MgrA-DNA mod
CCNc1nc(OCC(F)(F)F)nc(N(c2ccccc2)c2ccccc2)n1 | -5.0 | -0.8
O=C(COc1ccc(C(F)(F)F)cc1)c1ccc2c(c1)OCCO2 | -2.0 | nt
O=S(=O)(c1cccc(C(F)(F)F)c1)N1CC=C(c2ccccc2)CC1 | nt | 0.7
CN(C(=O)c1cc(C(C)(C)C)nn1C)c1nnc(C(F)(F)F)s1 | nt | -0.2
Cc1cc(C(F)(F)F)n2nc(-c3ccccc3)cc2n1 | -40.0 | nt
C=CCNC(=O)Cn1c(C(F)(F)F)nc2ccccc21 | nt | -4.8
COc1cc(OC)c(C(F)(F)F)cc1[N+](=O)[O-] | nt | 1.3
O=C(Nc1c(-c2cccs2)nc2ccccn12)c1cccc(C(F)(F)F)c1 | 9.0 | 1.9

Further entries.
SMILES | S aureus helic | MgrA-DNA mod
CCOC(=O)c1cnc2c(c(C3CC3)nn2C)c1N1CCCCC1 | -7.0 | nt
CNC(=S)N(Cc1ccco1)C1CC(=O)N(c2ccccc2)C1=O (stereo unspecified) | 21.0 | 2.4
COc1ccc(C2SC(C)C(=O)N2CCCn2ccnc2)cc1OC (stereo unspecified) | -9.0 | nt
C=CCN(CC=C)C(=O)C1CCN(S(=O)(=O)c2ccc(-n3cnnn3)cc2)CC1 | 17.0 | 0.3
